12-LOX inh = inhibitors of human 12S-lipoxygenase ALOX12; P18054; purified 12hLO, xylenol orange hydroperoxide absorbance; Potency, µM (doses to about 108 µM), for inactives: at the top dose activity change, negative = inhibition, usual class: inhibitors; hit rate 1.1% among 580,000; note: % is set by controls: 0 for no effect and ±100 for the full control effect
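Purified human 12hLO (150 nM final) in 25 mM Hepes, 0.01% Triton X-100, pH 7.0 was preincubated 15 min at room temperature with compound. Then 40 uM arachidonic acid was added, 30 min. Hydroperoxide was read by Fe-XO absorbance ratio 573/405 nm.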
Vif-APOBEC3G blk = Vif-A3G binding inhibition; Q9HC16; HeLa A3G-eYFP + Vif (tagged APOBEC3G with the HIV-1 protein that degrades it), YFP fluorescence, overnight; Potency, µM (top dose mostly 46.1 µM), for inactives: top-dose activity, negative = active, hits mostly inhibitors; hit rate 0.076% among 410,000; AID 602310;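 note: % is set by controls: 0 for no effect and ±100 for the full control effect; nearly all actives have a fitted effect of over 60% in size; hits raise eYFP signal because A3G escapes Vif-driven loss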
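HeLa cells stably expressing Vif and C-terminally eYFP-tagged A3G, seeded overnight at 37 deg C, then exposed to compound by pintool overnight at 37 deg C. Rise in yellow fluorescence (Ex 488/Em 500-530, Acumen) marks blocked Vif-driven A3G degradation.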
RGS4 inhibitor = blocks human RGS4-accelerated GTP hydrolysis; hit rate 0.039% among 390,000; AID 504845; Transcreener GDP fluorescence polarization, RGS4-accelerated GTP hydrolysis; Potency, µM (titrated, usually from 114 µM), for inactives: at the top dose activity change, negative = inhibition, actives largely listed as inhibitors; note: % is set by controls: 0 for no effect and ±100 for the full control effect; nearly all actives have a fitted effect of over 75% in size; some results filed as inactive show a strong effect at the top dose
Target sequence (P49798 whole entry, looked up): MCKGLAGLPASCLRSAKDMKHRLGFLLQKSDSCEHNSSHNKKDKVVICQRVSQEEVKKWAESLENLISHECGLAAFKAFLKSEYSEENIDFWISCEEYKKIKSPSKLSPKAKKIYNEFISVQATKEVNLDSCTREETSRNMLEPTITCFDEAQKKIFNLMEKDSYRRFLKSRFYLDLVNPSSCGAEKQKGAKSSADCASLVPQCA
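MLSMR compounds (23 nl, pin-transferred) preincubated 10 min at room temperature with a 500nM (2x) first reagent, then RGS4 at 900nM (2x) plus Transcreener GDP mix added; fluorescence polarization (620/688 nm) read before and after 90 min at 30 °C.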
mIDH1 inhibitor = blocks human mutant IDH1 R132H enzyme | O75874 | IDH1-R132H enzyme, NADPH consumption, diaphorase/resazurin fluorescence | Potency, µM (doses to about 76.6 µM), for inactives: at the highest dose activity change, negative = inhibition, actives largely listed as inhibitors | hit rate 0.093% among 390,000 | AID 602179; note: % is set by controls: 0 for no effect and ±100 for the full control effect; nearly all actives have a fitted effect of over 65% in size
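IDH1-R132H (0.5 ug/mL) preincubated 30 min with compound, then NADPH (0.016 mM) and alpha-KG (2 mM) added; 80 min at RT, pH 7.5. Remaining NADPH coupled via diaphorase/resazurin to fluorescence (540/590 nm); concentration-response curves normalized to no-enzyme control.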
Vif-A3F inh = Vif-A3F binding inhibition; HeLa A3F-eYFP + Vif (tagged APOBEC3F with the HIV-1 protein that degrades it), YFP fluorescence increase; Potency, µM (series often up to 46.1 µM), for inactives: top-dose activity, negative = active; hit rate 0.2% among 390,000; note: % of control where 0% means no effect; nearly all actives have a fitted effect of over 65% in size
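HeLa cells stably expressing A3F-eYFP plus Vif, plated and incubated overnight at 37 deg C, then exposed to compounds overnight at 37 deg C. Blocked degradation read as raised yellow fluorescence (Ex 488/Em 500-530).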
USP1 inh = blocks the human USP1/UAF1 deubiquitinase complex | hit rate 0.23% among 390,000 | O94782 | Potency, µM (series often up to 57.1 µM), for the others: at the highest dose activity change, negative = inhibition, actives largely listed as inhibitors | recombinant USP1/UAF1, Ub-Rhodamine cleavage fluorescence; note: % is set by controls: 0 for no effect and ±100 for the full control effect; nearly all actives have a fitted effect of over 60% in size; inactives centre near -12
Target sequence (O94782 whole entry, looked up): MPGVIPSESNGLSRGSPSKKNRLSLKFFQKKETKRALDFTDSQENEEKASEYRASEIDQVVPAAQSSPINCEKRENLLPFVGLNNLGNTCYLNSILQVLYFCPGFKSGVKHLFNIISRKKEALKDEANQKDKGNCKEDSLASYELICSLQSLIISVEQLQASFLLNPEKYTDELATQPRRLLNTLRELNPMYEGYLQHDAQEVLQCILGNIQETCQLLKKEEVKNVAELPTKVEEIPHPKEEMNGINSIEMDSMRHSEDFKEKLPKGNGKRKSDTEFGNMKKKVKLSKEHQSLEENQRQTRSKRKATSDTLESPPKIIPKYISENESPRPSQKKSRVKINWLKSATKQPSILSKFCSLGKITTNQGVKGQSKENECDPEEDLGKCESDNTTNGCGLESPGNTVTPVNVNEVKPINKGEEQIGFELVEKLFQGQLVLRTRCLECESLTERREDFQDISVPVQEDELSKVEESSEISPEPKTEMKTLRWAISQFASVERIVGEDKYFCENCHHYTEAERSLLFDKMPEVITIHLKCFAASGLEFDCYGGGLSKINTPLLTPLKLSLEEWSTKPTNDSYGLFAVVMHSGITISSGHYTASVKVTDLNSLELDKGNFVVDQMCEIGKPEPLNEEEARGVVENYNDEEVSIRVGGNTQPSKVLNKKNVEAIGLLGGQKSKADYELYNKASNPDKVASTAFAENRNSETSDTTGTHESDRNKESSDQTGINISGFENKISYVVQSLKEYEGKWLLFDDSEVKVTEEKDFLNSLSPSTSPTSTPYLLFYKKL
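High-throughput fluorogenic screen: 1nM USP1/UAF1 complex, Ub-Rho substrate 150nM final, 50mM HEPES pH 7.8 with 0.5mM EDTA, 0.1 mg/ml BSA, 1mM TCEP and 0.01% Tween-20.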
TrxR1 substrate = substrates of rat thioredoxin reductase 1 | O89049 | purified TrxR1 substrate turnover, NADPH consumption readout | Potency, µM (top dose mostly 114 µM), without a hit: at the top dose activity change, negative = substrate turnover | hit rate 0.01% among 390,000 | AID 588456; note: % is set by controls: 0 for no effect and ±100 for the full control effect; nearly all actives have a fitted effect of over 50% in size
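Rat TrxR1, dispensed at 90 nM, was prereduced with 400 uM NADPH (final) for 5 min at ~22 deg C, then incubated with compound 15 min before 400 uM selenite. A first-read NADPH fluorescence drop versus no-compound background flagged substrates.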
TrxR1 inh = rat TrxR1 inhibition; O89049; recombinant rTrxR1, NADPH fluorescence consumption, selenite substrate; Potency, µM (series often up to 114 µM), for inactives: at the top dose activity change, negative = inhibition, actives largely listed as inhibitors; hit rate 1% among 390,000; note: % is set by controls: 0 for no effect and ±100 for the full control effect; nearly all actives have a fitted effect of over 65% in size
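Rat TrxR1 (90 nM in the dispensed reagent) was pre-reduced with 400 uM NADPH for 5 min at room temperature, then incubated with compound for 15 min. After 400 uM selenite was added, NADPH fluorescence (Ex 340/Em 450 nm) was followed for 8 min.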
* marks the source's active call; other numbers are inactive results; ? = inconclusive; / = no result given; & = joins results of further samples; [ ] = dose if it differs, or a comment. Calls come from the whole dose curve; as a rule, active = well fitted curve in the direction sought with a large enough effect; inconclusive = small, poorly fitted or top-dose-only effect, or another doubt; inactive = no such curve, though single readings can be large; an effect the other way counts as inactive or inconclusive. Potency is the fitted concentration of half-maximal effect. The list is partial; count on the stated rates, not on these rows.

SMILES	12-LOX inh	Vif-APOBEC3G blk	RGS4 inhibitor	mIDH1 inhibitor	Vif-A3F inh	USP1 inh	TrxR1 substrate	TrxR1 inh
COc1ccc(N2C(N)=NC(N)=NC23CCCC3)cc1	25%	0%	27%	1%	6%	-23%	6%[57.1 µM]	10%[57.1 µM]
O=C(O)Cc1sc(Nc2ccc(C(=O)O)cc2)nc1-c1ccccc1	-22%	4%	-12%	1%	-5%	-33%	-6%	-15%
Cc1cc(C(=O)Nc2sccc2C#N)c2ccccc2n1	-1%	-3%	?	5%	-9%	-20%	0%	?
COc1ccc(-c2cnn(C3CCS(=O)(=O)C3)c2N)cc1 (centres undefined)	480%[activator]	0%	-5%	0%	1%	-16%	1%	-4%
CCn1c(SCC(=O)N(C(C)C)C(C)C)nnc1-c1cc2ccccc2cc1O	0%	0%	?	2%	6%	-8%	-4%	10%
CCc1cc(C(=O)c2ccc(OC)cc2)c(NC(=O)CC(C)(C)CC(=O)O)s1	?	-5%	-25%	-4%	2%	-7%	-3%	1%
Cn1c(=O)c2sccc2n2c(CCCC(=O)Nc3ccc(Cl)cc3)nnc12	-8%	-2%	-33%	-7%	4%	-16%	9%[57.1 µM]	26%[57.1 µM]
COc1ccccc1N1CCN(c2nc(C)nc3c2oc2ccccc23)CC1	-14%	-16%	6%	-1%	-19%	-14%	35%[activator]	56%[activator]
COc1ccc(Cl)cc1NC(=O)c1cc(S(=O)(=O)N(C)Cc2ccccc2)ccc1F	-25%	1%	0%	-8%	1%	?	5%[57.1 µM]	23%[57.1 µM]
CCOC(=O)C1CCCN(c2nc3ccccc3nc2C(C#N)C(=O)NCc2ccccc2)C1 (centres undefined)	-7%	-10%	9%	1%	-5%	?	11%[57.1 µM]	16%[57.1 µM]
Cc1ccc(Cc2nc3ccccc3nc2SCC(=O)NCCc2ccccc2)cc1	-10%	0%	-18%	-12%	-6%	-13%	-3%[57.1 µM]	14%[57.1 µM]
CC1(C)Cc2ccccc2C(C(=O)c2ccccc2)=N1	0%	3%	5%	3%	2%	-18%	1%	6%
COc1ccc2cc(Br)ccc2c1CC(=O)NCC1CCCO1 (centres undefined)	-19%	1%	-3%	0%	-1%	-16%	7%	21%
COC(=O)CSc1nc(NC(C)=O)nc(C)c1Br	-1%	0%	-12%	12%	-4%	-14%	-5%	-11%
CC(=O)n1cc(C(C[N+](=O)[O-])SCCN)c2ccccc21 (centres undefined)	/	?	?	13%	-1%	-23%	-4%	?
Cc1ccc(-n2ccnc(NCc3ccccc3)c2=O)cc1C	-23%	4%	-19%	-6%	-3%	-9%	6%[57.1 µM]	3%[57.1 µM]
Cc1ccc(NC(=O)CSc2nc3ccccc3nc2Cc2ccccc2F)cc1F	-15%	-1%	-3%	16%	-6%	-17%	12%[2.29 µM]	-10%
CCC(=O)Oc1cc(C(C)(C)C)cc2cc(-c3nc(-c4ccc(OC)cc4OC)no3)c(=O)oc12	0%	-7%	9%	11%	-5%	-6%	10%	9%
CN(CC(=O)Nc1cccc(F)c1)C(=O)c1cccnc1Sc1ccccc1	7%	0%	1%	5%	3%	-15%	1%	3%
CCOc1ccc(CCNC(=O)CSc2nnnn2-c2ccccc2)cc1OCC	-12%	0%	17%	17%	2%	-4%	-6%	6%
Cn1c(N)c(C(=O)COc2ccc(Cl)cc2Cl)c(=O)n(C)c1=O	4%	-6%	11%	-3%	1%	-8%	3%	9%
CCc1cccc(NC(=O)CSc2nncn3c2cc2sccc23)c1	-23%	-5%	2%	-19%	?	-9%	-8%	8%
O=C1Nc2c(c(=O)[nH]c(=O)n2-c2ccccc2)C1(NS(=O)(=O)c1ccc(Cl)cc1)C(F)(F)F (centres undefined)	-12%	5%	-15%	0%	1%	-9%	0%	6%
COc1cccc2cc(C(=O)Nc3ccc(C)cc3)c(=O)oc12	?	-1%	-1%	-8%	-5%	-25%	2%	19%
CC(C)C[C@H](NC(=O)OC(C)(C)C)C(=O)N1CCC(C(=O)O)CC1	6%	0%	-13%	0%	-7%	-14%	9%[57.1 µM]	6%[57.1 µM]

3 compounds already listed, arranged by molecular weight, largest number first:
SMILES	12-LOX inh	Vif-APOBEC3G blk	RGS4 inhibitor	mIDH1 inhibitor	Vif-A3F inh	USP1 inh	TrxR1 substrate	TrxR1 inh
CN(CC(=O)Nc1cccc(F)c1)C(=O)c1cccnc1Sc1ccccc1	7%	0%	1%	5%	3%	-15%	1%	3%
COc1ccccc1N1CCN(c2nc(C)nc3c2oc2ccccc23)CC1	-14%	-16%	6%	-1%	-19%	-14%	35%[activator]	56%[activator]
Cc1ccc(-n2ccnc(NCc3ccccc3)c2=O)cc1C	-23%	4%	-19%	-6%	-3%	-9%	6%[57.1 µM]	3%[57.1 µM]

Next section:
SMILES	12-LOX inh	Vif-APOBEC3G blk	RGS4 inhibitor	mIDH1 inhibitor	Vif-A3F inh	USP1 inh	TrxR1 substrate	TrxR1 inh
CCCCOC(=O)CSc1nc(N)c(C#N)c(-c2ccc(OC)cc2)c1C#N	0%	2%	-25%	10%	1%	-21%	10%	8%
Cc1ccc(CNC(=O)C2CCN(C(=O)c3ccc(-n4ccc5ccccc54)s3)CC2)cc1	-2%	-3%	-6%	-12%	-3%	-19%	1%[57.1 µM]	2%[57.1 µM]
CCOc1ccc(NC(=O)c2sc3nc(-c4ccc(OC)cc4)cn3c2C)cc1	-1%	7%	-29%	-13%	0%	-6%	0%[57.1 µM]	15%[57.1 µM]
CCOc1ccc(C2C(C(=O)c3ccc(C)o3)=C(O)C(=O)N2c2nc(C)c(C(=O)OC)s2)cc1 (centres undefined)	?	-7%	-34%	-7%	1%	-25%	-10%	?
CSCCC(Nc1ncnc2ccc(Br)cc12)C(=O)O (centres undefined)	-18%	0%	-1%	5%	2%	-3%	0%	2%
N=c1c(C(=O)NCC2CCCO2)cc2c(=O)n3ccccc3nc2n1CCCO (centres undefined)	?	3%	-13%	-16%	-3%	-15%	/	?
O=C(Nc1nc2c(Br)cc(Br)cc2c(=O)s1)c1ccco1	-18%	-8%	-25%	7%	-11%	-7%	-6%[57.1 µM]	-8%[57.1 µM]
Cc1cc(-c2[nH]nc3c2C(c2cccc(O)c2)C(C#N)=C(N)O3)c(C)s1 (centres undefined)	-29%	3%	-17%	14%	-7%	-10%	-5%	?
O=S(=O)(Nc1ccc2c(c1)OCCO2)c1ccc(F)cc1	-7%	3%	4%	1%	-9%	-2%	13%[57.1 µM]	5%
CC(=O)Nc1ccc(NC(=O)CN2C(=O)CN(C)C(=O)c3ccccc32)cc1	-14%	3%	3%	-7%	-5%	-7%	-10%[57.1 µM]	-9%[57.1 µM]
S=c1[nH]nc(-c2c[nH]c3ccccc23)o1	?	-10%	-33%[56.9 µM]	-1%	1%	-21%	91%[activator]	19%
Cc1cccc(C(=O)Nc2nnc(S(=O)(=O)N(C)Cc3ccccc3)s2)c1	2%	0%	14%	43%[activator]	5%	-14%	-6%	3%
CCCCNC(=O)CSc1nc2ccccc2nc1Cc1ccccc1	-20%	-1%	11%	13%	0%	-24%	3%[57.1 µM]	23%[57.1 µM]
Cc1cccc(NC(=O)c2cc3c([nH]c2=O)CC(c2ccccc2)CC3=O)c1 (centres undefined)	-19%	-3%	8%	-3%	-4%	-2%	-2%[57.1 µM]	2%[57.1 µM]
O=C(O)c1cc(-c2cccnc2)nc2ccc(Br)cc12	0%	1%	-23%	0%	1%	-10%	4%	16%
Cc1nc2nc(SCC(=O)NC3CCC(C)CC3)nn2c(C)c1Cc1ccccc1Cl (centres undefined)	0%	4%	-14%	-18%	-2%	5%	-3%[57.1 µM]	2%[57.1 µM]
O=C1C(=O)N(Cc2ccncc2)C(c2cccc(O)c2)/C1=C(\O)c1ccc2c(c1)OCCO2 (centres undefined)	?	-3%	15%	-3%	-8%	-13%	-15%	-30%
Cn1c(CCN2CCCCC2)nc2cc([N+](=O)[O-])ccc21	9%	-2%	-18%	-3%	-10%	-13%	1%	16%
COc1ccc(OC)c(NC(=O)c2oc(=O)c3ccccc3c2-c2ccccc2)c1	7%	1%	-23%	-14%	-3%	?	7%[57.1 µM]	23%[57.1 µM]
O=C1OC(c2ccc(Br)cc2)=N/C1=C\c1ccco1	-28%	-2%	-5%	6%	-1%	-27%	-13%[57.1 µM]	19%[57.1 µM]
COc1ccc(C(=O)Nc2nnc(-c3ccccc3)o2)cc1OC	12%	0%	0%	1%	5%	-13%	-11%	8%[57.1 µM]
C=CCn1c(COc2ccc(Cl)cc2)nnc1SCC(=O)Nc1ccc(S(N)(=O)=O)cc1	0%	2%	-28%	5%	12%	-16%	11%[57.1 µM]	9%[57.1 µM]
CC(=O)c1ccc(NC(=O)Cn2c(=O)n(Cc3ccco3)c(=O)c3sc4ccccc4c32)cc1	-25%	-19%	-24%	-7%	-2%	-24%	3%	4%
CC(=O)Oc1cccc(C(=O)Nc2cccc(C(=O)Nc3ccccc3C(=O)O)c2)c1	9%	-4%	1%	15%	?	-20%	5%[57.1 µM]	8%[57.1 µM]
CCC(C(=O)Nc1cc(C(F)(F)F)ccc1Cl)n1nc(C)c2sc3ccccc3c2c1=O (centres undefined)	-21%	0%	-22%	12%	-5%	-16%	46%[activator]	17%
C=CCOc1cccc(C2/C(=C(\O)c3ccc4c(c3)OCCO4)C(=O)C(=O)N2Cc2cccnc2)c1 (centres undefined)	-2%	-8%	32%	-1%	8%	-19%	-7%	-10%
Cc1nn(C)cc1CN(C)C(=O)c1cc(-c2ccccc2)nc2ccc(Br)cc12	-16%&-19%	-8%&-16%	19%&-34%	1%&0%	-10%&1%	-24%&-22%	-2%&-3%	3%&4%
O=C(c1ccc(Cl)nc1)N1CCN(S(=O)(=O)c2ccccc2)CC1	22%	-1%	-10%[56.9 µM]	-6%	?	-11%	-4%	19%
CCc1ccc(NC(=O)CSc2ccc(-c3sc(-c4ccccc4)nc3C)nn2)cc1	0%	-1%	4%	-13%	7%	0%	15%	10%
CCc1cc2c(cc3c(=O)n(CC(=O)NC4CCCCC4)ncn32)s1	?	1%	-1%	-5%	-7%	5%	6%	19%
